# Source: PubChem BioAssay (National Center for Advancing Translational Sciences (NCATS))
# NPR1 antag: Natriuretic polypeptide receptor (hNpr1) antagonism - Primary qHTS. HEK293 hNpr1 GloSensor cGMP, ANP-stimulated luminescence. Potency, µM (highest dose often 46.3 µM), for the others: at the highest dose activity change, negative = inhibition, actives largely listed as inhibitors. hit rate 1.6% among 76,000; active = well fitted inhibition curve with a large enough effect; inconclusive = small, poorly fitted or top-dose-only effect; inactive = no such curve, though single readings can be large or run the other way;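 further: nearly all actives have a fitted effect of over 60% in size; nearly all hits also lower the signal before the agonist is added; a reference antagonist and vehicle were the controls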
# Target sequence (P16066 whole entry, looked up): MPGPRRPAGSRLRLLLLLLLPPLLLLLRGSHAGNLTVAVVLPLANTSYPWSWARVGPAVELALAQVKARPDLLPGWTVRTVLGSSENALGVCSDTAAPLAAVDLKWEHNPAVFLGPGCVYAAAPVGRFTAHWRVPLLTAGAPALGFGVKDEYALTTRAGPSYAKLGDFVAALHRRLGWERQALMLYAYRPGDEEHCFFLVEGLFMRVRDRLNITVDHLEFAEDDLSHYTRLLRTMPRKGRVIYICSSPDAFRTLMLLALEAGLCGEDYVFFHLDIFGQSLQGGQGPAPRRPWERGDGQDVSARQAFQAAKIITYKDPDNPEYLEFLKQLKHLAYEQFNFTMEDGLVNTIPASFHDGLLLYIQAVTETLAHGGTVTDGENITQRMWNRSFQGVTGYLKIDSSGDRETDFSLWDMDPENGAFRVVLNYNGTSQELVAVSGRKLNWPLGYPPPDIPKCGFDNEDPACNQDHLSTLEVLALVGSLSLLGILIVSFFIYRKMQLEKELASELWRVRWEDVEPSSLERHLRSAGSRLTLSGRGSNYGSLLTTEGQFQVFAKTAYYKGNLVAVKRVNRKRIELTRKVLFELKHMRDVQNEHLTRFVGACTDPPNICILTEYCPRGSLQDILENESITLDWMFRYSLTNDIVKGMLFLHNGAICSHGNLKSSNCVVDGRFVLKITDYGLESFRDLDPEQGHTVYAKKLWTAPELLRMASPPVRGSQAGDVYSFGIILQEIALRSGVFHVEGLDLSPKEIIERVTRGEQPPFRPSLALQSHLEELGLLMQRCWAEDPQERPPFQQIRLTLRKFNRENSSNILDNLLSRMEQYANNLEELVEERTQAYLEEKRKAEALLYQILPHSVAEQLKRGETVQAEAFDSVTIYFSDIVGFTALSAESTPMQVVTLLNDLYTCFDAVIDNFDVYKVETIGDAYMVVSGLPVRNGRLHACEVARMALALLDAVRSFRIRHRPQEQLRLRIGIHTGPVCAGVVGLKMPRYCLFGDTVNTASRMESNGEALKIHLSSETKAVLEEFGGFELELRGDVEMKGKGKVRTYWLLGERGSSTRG
#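 HEK293 cells stably expressing human Npr1 and cGMP GloSensor pGS-40F, loaded 2 h with 2% GloSensor reagent, given compound 30 min at room temperature. Luminescence read before and 20 min after 0.1 nM hNppA.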
# An asterisk follows results filed as active; u = inconclusive; [ ] = another dose, or the depositor's remark. On the % scale 0 is the no-effect control and ±100 the full control effect; potency means the concentration at half of the fitted maximal effect.
NPR1 antag,SMILES
-14%,O=C1Nc2ccc(-c3ccccc3)cc2C(=O)N2CC[C@H](NS(=O)(=O)c3cccs3)[C@@H]12
2%,COc1ccccc1CNC(=O)[C@H]1C[C@@H](O)[C@H](O)[C@@H]2N=C(Nc3ccc(C)cc3)S[C@@H]21
-22%,O=C(c1ccc(OC(F)(F)F)cc1)N1CCN(c2cc(-c3ccccc3)[nH]n2)CC1
0%,O=C([C@H]1C[C@H](Oc2ccccc2)CN1C(=O)Nc1cccc(F)c1)N1CCOCC1
1%,O=C(Nc1cccc2ccccc12)O[C@@H]1CO[C@H]2[C@@H]1OC[C@@H]2NS(=O)(=O)c1cccs1
1%,CCOCCOC1CCN(C(=O)c2ccccc2)CC1
-13%,CC(C)c1noc(CC2CCN(C(=O)c3ccc4c(c3)OCO4)CC2)n1
-23%,Cc1ccc(CNC(=O)N2CCC(OC3CCN(Cc4ccccc4)CC3)CC2)cc1
-7%,CN(C)CCCNC(=O)c1cn2ccnc(-c3ccc(F)cc3)c2n1
-2%,CCC(C)NC(=O)C(NC(=O)c1cccs1)C1CCN(C(=O)c2ccccc2F)CC1 (stereo not drawn)
-4%,COc1ccccc1-c1noc(-c2nnn3c2COC(c2ccc(F)cc2)C3)n1 (stereo not drawn)
-3%,CCCCCNC(=O)Cc1csc2nc(C)c(-c3cc(C)n(-c4ccc(F)cc4)n3)c(=O)n12
u,COc1ccc(CN2C[C@H]3CN(Cc4ccc(S(C)(=O)=O)cc4)CCN3C2=O)cc1
0%[70.6 µM],COc1ccc(NC(=O)O[C@@H]2CO[C@H]3[C@@H]2OC[C@@H]3NC(=O)COc2ccccc2)cc1
1%[70.6 µM],COc1ccc(-c2cn(C)c(=O)n3cc(CN4CCNC(=O)C4)nc23)c(C(F)(F)F)c1
5%,CC1=C[C@@H](CN2CCC(C(N)=O)CC2)[C@H](C(C)C)C[C@H]1Cc1nnc(-c2ccc(N(C)C)cc2)o1
u,COc1ccc(C2Cn3nnc(-c4nc(-c5ccccc5)no4)c3CO2)cc1 (stereo not drawn)
-2%,Cc1cn2nc(C(=O)N3CCC(NC(=O)c4ccccc4)CC3)cc2c(=O)[nH]1
-5%,Cc1cccc(CNC(=O)CCc2conc2-c2cccc(F)c2)c1
2%,CC(C)n1cncc1CN1CCC2(CCCO2)CCC1=O (stereo not drawn)
-10%,COc1ccc(C(=O)N2CCC3(CC2)CC(OC)CCO3)cc1OC (stereo not drawn)
1%,COCCNC(=O)C1COC2(CCN(C(=O)c3ccccc3F)CC2)N1C(=O)c1ccco1 (stereo not drawn)
2%[70.6 µM],CN(C)C(=O)c1ccc2cncn2c1
-7%,O=C1NC2CCCCC2=C1CC(=O)N1CCc2ccccc21 (stereo not drawn)
2%,CCc1nnsc1C(=O)N1CCc2nc(NC)nc(C(=O)N3CCCC3)c2C1
-10%,Cc1ccc(C2(O)CCN(C(=O)c3cc4c(s3)CCCC4)CC2)nc1
5%,COc1ccc(CCC(=O)N2C[C@@H](C(N)=O)[C@H](c3nc(C)no3)C2)cc1OC
1%,O=C(Cn1cccn1)N1CC(F)(F)C[C@H]1c1nc(C2CC2)no1
-2%,Cc1ccc(C(=O)N2CCC3(CC2)OCC(C(=O)N2CCOCC2)N3C(=O)c2ccc(F)cc2)cc1 (stereo not drawn)
3%[70.6 µM],O=C(NCCc1ccccn1)c1ccnc(-c2nnc3ccc(N4CCOCC4)nn23)c1

# An excerpt of these results, as labelled records.
Molecule: CC(C)c1noc(CC2CCN(C(=O)c3ccc4c(c3)OCO4)CC2)n1
  NPR1 antag: -13%

Molecule: Cc1ccc(CNC(=O)N2CCC(OC3CCN(Cc4ccccc4)CC3)CC2)cc1
  NPR1 antag: -23%

Molecule: CN(C)CCCNC(=O)c1cn2ccnc(-c3ccc(F)cc3)c2n1
  NPR1 antag: -7%

# The main list resumes with the three entries that preceded the break.
NPR1 antag,SMILES
1%,O=C(Cn1cccn1)N1CC(F)(F)C[C@H]1c1nc(C2CC2)no1
-2%,Cc1ccc(C(=O)N2CCC3(CC2)OCC(C(=O)N2CCOCC2)N3C(=O)c2ccc(F)cc2)cc1 (stereo not drawn)
3%[70.6 µM],O=C(NCCc1ccccn1)c1ccnc(-c2nnc3ccc(N4CCOCC4)nn23)c1
6%,c1ccc(-c2noc(-c3ccn4c(CN5CCOCC5)nnc4c3)n2)cc1
-25%,Cc1ccc(C(=O)N2CCCC(n3cc(-c4nc(C(C)C)no4)nn3)C2)cc1 (stereo not drawn)
-2%[70.6 µM],O=C(N[C@H]1CCN2C(=O)N(c3cccc(C(F)(F)F)c3)C(=O)[C@@H]2C1)c1cnccn1
-3%,O=C(NCc1nnc2ccc(-c3ccc(Cl)cc3)nn12)c1cccc(Cl)c1
0%,CN(C)C[C@@H]1CN(Cc2cccnc2)C[C@H]1NC(=O)c1ccccc1Cl
-2%,O=C(O)[C@]12CCCN(Cc3ncc[nH]3)[C@@H]1CCN(Cc1ccncc1)C2
4%[70.6 µM],Cc1oc(C(O)c2ccccc2)nc1C(=O)Nc1ccc2c(c1)CNC2=O (stereo not drawn)
-4%,O=C(NC1CCCCC1)N1CCC(c2noc(C3CC3)n2)C1 (stereo not drawn)
-1%[70.6 µM],COc1ccccc1CC(=O)N1CCCc2ncc(C(=O)N(C)Cc3ccccc3)cc21
-5%,COc1ccc(NC(=O)N2CC[C@@H](CC(=O)O)[C@@H](CC3=NCCc4cc(OC)c(OC)cc43)C2)cc1
3%,CCn1ccnc1CN(C)C(=O)c1cc(-c2cnc(N)nc2)nc2c(C)cccc12
-8%,CCn1nc(CC(C)C)cc1C(=O)N(C)Cc1noc2c1CCCC2
3%,Cc1noc2nc(C(C)C)cc(C(=O)NC3CCCc4c3[nH]c3ccccc43)c12 (stereo not drawn)
3%,CCOC(=O)C1CCN(C(=O)CC(c2ccc(OC)c(OC)c2)c2c[nH]c3c(CC)cccc23)CC1 (stereo not drawn)
0%,COc1ccc(Cn2c(C3CCN(C(=O)c4cccc(OC)c4)CC3)n[nH]c2=O)cc1
u,Cc1ccc(NC(=O)c2ccc3c(c2)N(C)C2CCCN2C3=O)cc1F (stereo not drawn)
0%,Cc1cc(C(=O)N2CCc3ncnc(N4CCOCC4)c3CC2)n(C)n1
-24%,CCC(CC)C(=O)N1CCC2(CC1)CC(N(Cc1ccc(F)cc1)C1CC1)CCO2 (stereo not drawn)
-5%,COc1ccc(-n2nc(C3CCCN(C(=O)c4ccc(C(F)(F)F)cc4)C3)[nH]c2=O)cc1 (stereo not drawn)
-3%[70.6 µM],COc1ccc(-c2cc(-c3ccncc3)c3cncn3c2)cn1
-4%,Oc1ccc(-c2nc(C3CC3)nc3c2CN(Cc2ccccc2)CC3)cc1
0%,Cc1nc(C)c(C(=O)N2CCCN(S(=O)(=O)c3ccccc3)CCC(=O)NCC2)s1
0%[70.6 µM],CC1=NOC2(CCN(C(=O)c3ccc(C)cc3)CC2)C1
-25%,Cc1cc(Cl)ccc1S(=O)(=O)N1CC(c2nc(Cc3ccccc3)no2)C1
-20%[70.6 µM],CC(=O)Nc1ccc(CNC[C@H]2Cn3c(-c4ccc5c(c4)OCCO5)cnc3CO2)cc1
3%[70.6 µM],CCCc1nnc([C@H]2CCN(Cc3ncc[nH]3)C2)o1
1%,CC1=C[C@@H](CN2CCN(c3cnccn3)CC2)[C@H](C(C)C)C[C@H]1Cc1nnc(-c2ccc([N+](=O)[O-])cc2)o1
3%[70.6 µM],CC1(CCCCc2ccccc2)COc2ccc(C(=O)NCc3cnccn3)cc2N1 (stereo not drawn)
0%[70.6 µM],O=C(NCC1CN(Cc2cccnc2)CC12CN(c1ccccc1)C2)C1CC1 (stereo not drawn)
-2%,COc1cncc([C@@H](NC(=O)Cc2cn3ccsc3n2)C2CC(O)C2)c1 (stereo partly drawn)
0%,O=c1c2c3c(nn2ccn1Cc1ccccc1)CCCC3
11%,CC(C)CC(=O)N1CCc2c(c(-c3nncn3C(C)C)nn2C)C1
-1%,Cc1[nH]ncc1CNC(=O)CN1CCCc2nc(C3CC3)ncc2C1=O
1%[70.6 µM],O=C(NC[C@H]1O[C@@H](CC(=O)N2CCc3ccccc32)[C@H](O)[C@@H]1O)Nc1cccc(F)c1
9%,CNC(=O)[C@@H]1CN(C(=O)c2cccnc2)C[C@H]1COC
-10%,CCC1(O)CCCN(C(=O)c2cc(COc3ccccc3OC)[nH]n2)C1 (stereo not drawn)
-2%,CC(C(=O)NCc1cc(F)cc(F)c1)C1CCOCC1 (stereo not drawn)
-26%,Cc1nsc(NC(=O)NCc2cccc(Cl)c2Cl)n1
-5%[70.6 µM],CCCc1nnc([C@H]2CCN(Cc3ccc(NC(C)=O)cc3)C2)o1
-18%,Cc1c(-c2ccccc2F)[nH]c2ccc(CNC(=O)C3CCNC3)cc12 (stereo not drawn)
3%[70.6 µM],CNC(=O)C(C)(C)N1CCC[C@H]1C(=O)NCCc1ccccn1
-2%[70.6 µM],O=C(NCC1(COc2cnccn2)C[C@@H](O)[C@@H](O)C1)c1ccno1 (stereo partly drawn)
2%,Cc1ccc(CC(=O)NCc2nnc3cc(-c4nc(C5CC5)no4)ccn23)cc1
-7%,CN(C)c1ccc(CN2CCC3(C2)NC(=O)c2ccccc2CO3)cc1 (stereo not drawn)
-19%,O=C(c1ccccc1)N1CCCC(n2cc(-c3nc(C4CC4)no3)nn2)C1 (stereo not drawn)
-12%,CCOc1cc(C(=O)N2CCC[C@H]2c2nc(-c3ccc(C)cc3)no2)cc(OCC)c1OCC
2%[70.6 µM],COc1ccccc1CN1CCC(n2cc[nH]c2=O)CC1
6%,O=C(C1CCCCC1)N1CC(F)(F)C[C@H]1c1nnc(C2CC2)o1
u,Cc1ccc(CNC(=O)c2ccc3c(c2)CN(Cc2cnn(C)c2C)CCO3)cc1
8%,Cc1noc(-c2ccccc2OC2CCN(C(=O)c3cc(C)[nH]n3)C2)n1 (stereo not drawn)
-1%,O=C(c1ccnnc1)N1C[C@@H](COCC2CC2)[C@H](c2ccccn2)C1
5%,CN1CCC2(CCC1=O)CN(C(=O)Cn1ncnn1)CCN2C (stereo not drawn)
4%[70.6 µM],O=C(CC[C@@H]1CNC(=O)[C@@H]2C[C@H](NC(=O)c3cccc(F)c3)CN12)NC1CC1
10µM*,COc1ccc(C(=O)N2CCN(C(=O)c3nnn4c3COC(c3ccc(Cl)cc3)C4)CC2)c(C)c1 (stereo not drawn)
1%,Cc1nnnn1-c1cccc(C(=O)Nc2ccc3c(c2)C(=O)N2CCC[C@H]2C(=O)N3)c1
6%,Cc1cnc(-c2ccncc2)n1C1CCN(C(=O)Cc2ccccc2)CC1
6%,COCCOc1ccc2c(n1)CCN(C(=O)c1sccc1C)C2
-1%[70.6 µM],Cc1ccccc1CN1CCC2OCCN(CCc3ccccc3)C(=O)C2C1 (stereo not drawn)
-3%,O=C(Nc1ccc2c(c1)OCCO2)[C@H]1CN(Cc2ccccc2)C[C@H]1C(=O)O
0%,COC1CN(c2ccc(C)cc2)C12CCN(C(=O)CC(C)C)CC2 (stereo not drawn)

# Reformatted: two of the compounds above.
> Cc1ccc(CC(=O)NCc2nnc3cc(-c4nc(C5CC5)no4)ccn23)cc1
  NPR1 antag: 2%
> CN(C)c1ccc(CN2CCC3(C2)NC(=O)c2ccccc2CO3)cc1 (stereo not drawn)
  NPR1 antag: -7%

# Next section
NPR1 antag,SMILES
2%,CNC(=O)NC[C@H]1CCN(Cc2ccccc2)C[C@H]1N(C)C
0%,COCCNC(=O)[C@H]1C[C@H](Oc2cccnc2)CN1S(=O)(=O)c1cccc(OC)c1
7%,COCCc1nc(CNC(=O)C2CCCN(C(=O)N(C)C)C2)no1 (stereo not drawn)
-14%,CCC(=O)N(C1CCOCC1)C1CCN(S(=O)(=O)c2cc(C)ccc2C)CC1
-2%,CN(C)Cc1ccc2c(c1)c(OC(C)(C)C(=O)NCCN1CCOCC1)nn2Cc1ccccc1
1%,Cc1noc(-c2cn(C3CCN(C(=O)Cc4ccc(Cl)cc4)CC3)nn2)n1
3%[70.6 µM],CCNC(=O)O[C@@H]1CO[C@H]2[C@@H]1OC[C@@H]2NCC1CCCCC1
2%,CC(CCc1ccccc1)NC(=O)CC[C@H]1NC(=O)c2ccccc2NC1=O (stereo partly drawn)
-11%,COc1ccccc1C(=O)N1CCCN(C)c2ccccc21
u,O=C(C1CCCC1)N1CCC(n2cc(-c3nc(-c4ccccc4)no3)nn2)CC1
-26%,O=C(c1cccs1)N1CC(Oc2cccc(-c3nc(-c4ccccc4)no3)c2)C1
4%,COc1cccc2c1OCC(C(=O)NCCc1ncccc1C)C2 (stereo not drawn)
1%,CCc1noc(-c2cn(C3CCCN(C(=O)c4ccc(OC)c(F)c4)C3)nn2)n1 (stereo not drawn)
-4%,O=C(Nc1cccc(F)c1)N1CCCC2(C1)Nc1cccnc1NC2=NCc1ccccc1 (stereo not drawn)
-2%,COC(=O)CNC(=O)N1[C@@H]2CC[C@H]1CC(NC(=O)c1ccc(F)cc1)C2 (stereo partly drawn)
-11%[70.6 µM],CC(C)C[C@@H]1N[C@H](C(=O)O)Cc2cn(CC3CCC3)c3cccc1c23
2%,CCn1nccc1C(=O)N1C[C@@H]2CCCN3CCC[C@@H]([C@H]23)[C@H]1CCCC(=O)NC
2%,COc1ccc(NC(=O)[C@@H]2C[C@@H](c3cccc(C(F)(F)F)c3)N(CC3CCOCC3)C2)cc1
4%,Cc1ccc(NC(=O)Cn2cccc2-c2nc(-c3ccc(F)cc3)no2)cc1F
-2%,CCc1cc(=O)n(CC(=O)Nc2ccc(N(C)C)cc2)c(-c2ccccc2)n1

# These rows are one share of the data; count on the stated rates, not on these rows.
